Screens deposited in PubChem BioAssay by SRMLSC.
H5N1 antiviral: antiviral screen in MDCK cells, H5N1 avian flu; cytopathic effect, luminescence, 72 h; hits give high values; no value below 0 was filed and about half of the inactive calls have no number; reference of the scale not given here; 96,000 compounds, 0.07% hits; inhibition, % at 50 µM; in the data active = inhibition above about 25%
Numbers without * were called inactive; i = inactive. The list is partial; count on the stated rates, not on these rows.

No.	mol	H5N1 antiviral
1	Cc1ccc(C2C(C(=O)c3cc4ccccc4o3)=C(O)C(=O)N2CCN2CCOCC2)o1 (stereo unspecified)	1.4
2	CCCN(CCC)S(=O)(=O)c1ccc(C(=O)N2CCCc3ccccc32)cc1	0.2
3	COc1ccc(C(CC(=O)N2CCOCC2)C(C)C)cc1 (stereo unspecified)	i
4	CC(=NCC1CCCO1)C1=C(O)CC(C)(C)CC1=O (stereo unspecified)	i
5	Cc1ccc(N=Cc2sc(O)c3ccccc23)c(C)c1	5.0
6	C=CCn1c(SCC(=O)N2CCCCC2)nc(O)cc1=O	0.6
7	COc1ccc(C(=O)C2CCN(C(=O)c3ccco3)CC2)cc1	0.5
8	N#CC1=C2SCN(Cc3ccccc3)CN2C(=O)CC1c1cccs1 (stereo unspecified)	0.9
9	CC(=O)c1ccc(NC(=O)C2(c3ccccc3)CCOCC2)cc1	2.4
10	CS(=O)(=O)N1CCC(C(=O)NCC2CCCO2)CC1 (stereo unspecified)	i
11	O=C(NCCCN1CCOCC1)c1coc2ccccc2c1=O	1.4
12	COc1ccccc1S(=O)(=O)Cc1ccc(C(=O)NCc2cccnc2)o1	0.8
13	CC(=O)c1cccc(NC(=O)C2CCN(S(=O)(=O)c3c(C)n[nH]c3C)CC2)c1	1.4
14	O=C(CCc1ccc(Oc2cc([N+](=O)[O-])cc([N+](=O)[O-])c2)cc1)N1CCCCC1	4.6
15	COc1ccc(C(=O)Nc2cccc(-c3nc4ncccc4o3)c2C)cc1	i
16	CCc1cc2c(=O)nc3n(c2s1)Cc1ccccc1/C3=C(/O)c1ccccc1Cl	i
17	CCc1cc(C(=O)Cc2cnn(-c3ccccc3)c2)c(O)cc1O	1.7
18	CC(=O)OC(C(=O)NCc1ccc(F)cc1)c1ccccn1 (stereo unspecified)	i
19	CC1(C)C(c2cccs2)=NC(c2ccccc2)N1O (stereo unspecified)	0.1
20	COc1ccc(C2C(C(=O)N3CCC4(CC3)OCCO4)CC(=O)N2c2ccc(OC)cc2)cc1 (stereo unspecified)	i
21	Cc1nc2cc(NC(=O)NCc3ccco3)ccc2o1	0.4
22	Cc1nnc(SCC(=O)N/N=C/c2cn(-c3ccccc3)nc2-c2ccc(F)cc2)n1-c1ccccc1	i
23	O=C(NC1(C(F)(F)F)NC(=O)N(Cc2ccco2)C1=O)c1cccs1 (stereo unspecified)	i
24	CCNC(=O)CC1C(=O)N(C)C(=S)N1NC(=O)c1ccc(Cl)cc1 (stereo unspecified)	i
25	COC(=O)c1ccccc1CCC(C)=O	i

Among those listed so far, these have a halogen:
No.	mol	H5N1 antiviral
16	CCc1cc2c(=O)nc3n(c2s1)Cc1ccccc1/C3=C(/O)c1ccccc1Cl	i
18	CC(=O)OC(C(=O)NCc1ccc(F)cc1)c1ccccn1 (stereo unspecified)	i
22	Cc1nnc(SCC(=O)N/N=C/c2cn(-c3ccccc3)nc2-c2ccc(F)cc2)n1-c1ccccc1	i
23	O=C(NC1(C(F)(F)F)NC(=O)N(Cc2ccco2)C1=O)c1cccs1 (stereo unspecified)	i
24	CCNC(=O)CC1C(=O)N(C)C(=S)N1NC(=O)c1ccc(Cl)cc1 (stereo unspecified)	i

Reformatted: entries from further up
24) CCNC(=O)CC1C(=O)N(C)C(=S)N1NC(=O)c1ccc(Cl)cc1 (stereo unspecified)
  H5N1 antiviral = i

14) O=C(CCc1ccc(Oc2cc([N+](=O)[O-])cc([N+](=O)[O-])c2)cc1)N1CCCCC1
  H5N1 antiviral = 4.6

23) O=C(NC1(C(F)(F)F)NC(=O)N(Cc2ccco2)C1=O)c1cccs1 (stereo unspecified)
  H5N1 antiviral = i

8) N#CC1=C2SCN(Cc3ccccc3)CN2C(=O)CC1c1cccs1 (stereo unspecified)
  H5N1 antiviral = 0.9

(further entries)
No.	mol	H5N1 antiviral
26	CCC(C(=O)NC1CCCC1)N(C(=O)Cn1nnc(-c2ccc(OC)c(OC)c2)n1)C1CCCCC1 (stereo unspecified)	i
27	Cc1nc(SCC(=O)Nn2c(-c3ccccc3)nc3ccccc3c2=O)n[nH]1	0.2
28	COc1ccccc1NC(=O)CSC1=NC(=O)C(NC(C)=O)C(=O)N1 (stereo unspecified)	1.0
29	COc1ccc(-c2cc(C(F)(F)F)n3ncc(C(=O)NCc4ccco4)c3n2)cc1	1.3
30	O=C(CSCc1ccc(Cl)cc1)N/N=C/c1ccc(Cl)cc1Cl	0.3
31	O=C(O)CP(=O)(O)c1ccc(Cl)cc1	i
32	O=C(Nc1ccc(Cl)cc1)OC(CN1CCCCC1)C(F)(F)F (stereo unspecified)	i
33	CC1Cn2c(nnc2C23CC4CC(CC(C4)C2)C3)S1 (stereo unspecified)	1.5
34	Cc1ccc(NC(=O)Cc2ccc(F)cc2)cc1	i
35	CCOc1ccc(C(=O)Nc2cccc(C)n2)cc1	i
36	Cc1ccc(NC(=O)c2cc([N+](=O)[O-])ccc2NCc2cccnc2)cc1	i
37	COc1ccc(N2CCN(C(=O)CN3C(=O)c4ccccc4S3(=O)=O)CC2)cc1	1.1
38	COc1cccc(-c2nc(=S)c3c(n2CCCO)CCCC3)c1	0.3
39	Cc1onc(-c2ccccc2Cl)c1C(=O)N(Cc1nc(-c2ccccc2)no1)C1CCCCC1	1.5
40	CCCCC(=O)Nc1ccc(NC(=O)CC)cc1OC	i
41	COc1c(N2CCN(C(=S)Nc3ccccc3)C(C)C2)c(F)cc2c(=O)c(C(=O)O)cn(C3CC3)c12 (stereo unspecified)	0.3
42	O=C(c1cc2ccccc2oc1=O)N1CCN(Cc2ccc3c(c2)OCO3)CC1	0.6
43	CC1CCN(S(=O)(=O)c2ccc3c(c2)oc(=O)n3CC(=O)N2c3ccccc3CC2C)CC1 (stereo unspecified)	1.1
44	FC(F)(F)c1cccc(CON=C2CCN(c3ncc(C(F)(F)F)cc3Cl)CC2)c1	i
45	Cn1c(NCc2cccc(Br)c2)nc2ccccc21	i
46	COCCCn1c(Cc2csc(Nc3cccc(Cl)c3)n2)nnc1SCC(=O)OC	0.8
47	COCCNC(=O)COC(=O)c1nsc(Cl)c1Cl	i
48	CN1CCN(c2ccccc2NC(=O)COc2ccccc2)CC1	i
49	CCCn1c(SCC(N)=O)nnc1C(C)C	0.2
50	O=C(N/N=C/C=C/c1ccccc1)c1ccccc1Br	2.0
51	COc1cc(C(=O)Nc2nccs2)ccc1OCc1c(C)noc1C	i
52	CCOC(=O)C1CCN(CC(O)COc2ccc(C(=O)CC)cc2)CC1 (stereo unspecified)	0.4
53	COC(=O)CC1SCCNC1=O (stereo unspecified)	i
54	CC1=CC(=O)OC1Cc1ccncc1 (stereo unspecified)	i
55	COc1ccc(C(C)=O)cc1CN1C(=O)NC2(CCCCC2)C1=O	0.1
56	Cc1sc2nc(SCC(=O)NCc3ccco3)n(CCc3ccccc3)c(=O)c2c1C	i
57	Cc1ccccc1NC(=O)c1c(-c2ccccc2)noc1C	i
58	CCc1ccc(N(CC(=O)Nc2ccc(OC)cc2OC)S(C)(=O)=O)cc1	0.8
59	C=CCc1cccc(OC)c1OCCOCCNCCO	i
60	Cc1ccccc1-n1c(SCc2c(C)noc2C)nnc1-c1cccnc1	2.1
61	N#CC1=C2SCN(Cc3ccco3)CN2C(=O)CC1c1cccc2ccccc12 (stereo unspecified)	0.1
62	CCOC(=O)COc1c(Br)cc(/C=C2\SC(=O)N(CC(=O)N3CCCC3)C2=O)cc1OC	i
63	O=C(Nc1nc(-c2ccccc2)cs1)C1CCCCN1S(=O)(=O)c1ccccc1 (stereo unspecified)	0.6
64	COc1cc(NC(=O)CSc2nnnn2-c2ccccc2)cc(OC)c1OC	0.8
65	O=C(O)c1ccc(OC2CSC2)cc1	0.5
66	Cc1ccc2c(c1)N(CC(=O)O)C(=O)CO2	i
67	Cc1ccc(/C(O)=C2\C(=O)C(=O)N(c3cc(C)on3)C2c2cccc(Cl)c2)cc1 (stereo unspecified)	0.8
68	O=C(CSC1=Nc2ccccc2C2=NC(c3ccccc3)C(=O)N12)NCC1CCCO1 (stereo unspecified)	1.8
69	O=C(CC1NCCNC1=O)OCc1ccccc1 (stereo unspecified)	i
70	COc1ccc(NC(=O)CN2CCC(n3c(C)nc4cc(F)ccc43)CC2)c(OC)c1	2.6
71	CCCCNC(=O)NCC(=O)Nc1ccc(F)c(F)c1	0.4
72	Cc1cc(C)c2c(=O)[nH]c(SCC(=O)N(C)C)nc2n1	i
73	Cn1ncc([N+](=O)[O-])c1C(=O)Nc1ccn(Cc2ccccc2F)n1	i
74	CCn1c(SCC(=O)c2ccc(Cl)cc2)nnc1-c1ccoc1C	i
75	C=CCOC(=O)C1=C(C)OC(N)=C(C#N)C12C(=O)N(CN1CCOCC1)c1ccccc12 (stereo unspecified)	0.5

(listing goes on)
No.	mol	H5N1 antiviral
76	COc1cc(C(=O)NCCc2cn3ccccc3n2)cc(OC)c1OC	5.3
77	Cc1ccccc1NC(=O)CN1CCC(n2nnc3ccccc32)CC1	i
78	Cc1[nH]c2c(C)cccc2c1CCNC(=O)c1ccc2c(c1[N+](=O)[O-])C(=O)c1ccccc1C2=O	0.1
79	CCN(CC)Cc1c[nH]c2ccccc12	i
80	O=c1c2cccnc2[nH]c(=S)n1CCC1=CCCCC1	i
81	CC1=C(C(N)=O)C(c2ccccn2)n2nc(-c3ccccc3Cl)nc2N1 (stereo unspecified)	i
82	CC1CCN(C(=O)CSc2nnc(CNc3ccc(F)cc3)n2Cc2ccco2)CC1	0.1
83	O=C(CCS(=O)(=O)c1cccs1)Nc1ccc(C(=O)NCc2ccc(F)cc2)cc1	i
84	CCn1nnc(NC(=O)c2ccccc2Br)n1	0.1
85	CCOC(=O)c1[nH]c2ccc(Br)cc2c1NC(=O)CNC	0.2
86	Clc1ccc(C2C3=C(Nc4ncnn42)c2ccccc2CC3)cc1 (stereo unspecified)	0.8
87	COCCn1c(C)cc(C(=O)CSc2nnc(-c3cccnc3)n2-c2ccccc2F)c1C	i
88	Nn1cnnc1N/N=C/c1cc([N+](=O)[O-])c(Cl)cc1Cl	1.4
89	N#CCCN1CCN(S(=O)(=O)c2ccc(S(=O)(=O)NC3CCCCC3)cc2)CC1	0.6
90	Cc1noc2ncnc(Oc3ccccc3)c12	0.2
91	C=CCn1c(-c2cc(OC)c(OC)c(OC)c2)n[nH]c1=S	0.9
92	Cc1cccc(C(C)C)c1-n1nnnc1-c1ccccc1	0.2
93	COc1ccc(Cl)cc1NC(=O)C(C)N1CCN(C/C=C/c2ccccc2)CC1 (stereo unspecified)	i
94	CC(=O)c1c(N2CCN(c3cccc(Cl)c3)CC2)nc(=S)n(-c2ccccc2)c1C	2.6
95	COc1ccc(N2C(=O)CC(Nc3cccc(C(C)=O)c3)C2=O)cc1OC (stereo unspecified)	i
96	CC(C)OCCCn1c(-c2ccco2)nc2nc3ccccc3nc21	10
97	COc1ccc(N2CS(=O)(=O)/C(=C/N(C)C)C2=O)cc1	i
98	COc1cc(OC)c(OC)cc1CNCCc1ccc(OC)c(OC)c1	0.2
99	CCC(C)(C)n1nnnc1C(c1ccc(O)c(OC)c1)N1CCc2ccccc2C1 (stereo unspecified)	i
100	CCC(=O)N/C(=N/c1nc(C)cc(C)n1)Nc1cccc(OC)c1	1.1
101	CC1(C)CN(c2ccccc2)N(Cc2ccc(F)cc2)C1=O	1.1
102	CCn1c(-c2ccccc2Cl)nn(CC(=O)Nc2ccccc2OC)c1=S	i
103	O=C(COc1c(Br)cc(Br)c2cccnc12)N1CCc2ccccc2C1	i
104	CC1=C(C(=O)OCC2CCCO2)C(c2cccc(O)c2)NC(=O)N1 (stereo unspecified)	0.1
105	COC(=O)CCC(=O)NNC(=O)c1ccc(Br)cc1	0.2
106	COC(=O)COc1cccc(NC(=O)c2cccs2)c1	1.0
107	Cc1cc(N2CCN(S(=O)(=O)c3ccccc3)CC2)c2ccccc2n1	1.3
108	CC(=O)NC(=O)NC1OC(=O)C(Cl)=C1Cl (stereo unspecified)	i
109	COc1ccc(-c2nnc(SCc3cc(C)ccc3C)n2N)cc1	1.4
110	Cc1cc(C(=O)NCCN2CCN(c3cccc(Cl)c3)CC2)n(-c2ccccc2)n1	i
111	Cc1nc([N+](=O)[O-])c(N2CCN(Cc3ccccc3)CC2)n1Cc1ccccc1	1.6
112	CC(=O)Oc1ccc(/C=N/NC(=O)C2CCCN2S(=O)(=O)c2ccc(Cl)cc2)cc1 (stereo unspecified)	i
113	COc1ccc(C(=O)N2CCN(c3ccccn3)CC2)cc1	1.1
114	CCCCc1c(O)nc(SCC(=O)Nc2ccc3c(c2)CCC3)[nH]c1=O	0.2
115	C=CCNC(=S)NNC(=O)c1cccn(Cc2ccc(Cl)cc2Cl)c1=O	2.5
116	COc1ccc(CCNC(=O)COC(=O)c2cnc(C)cn2)cc1OC	0.1
117	c1cncc(Nc2nc(-c3cccs3)cs2)c1	1.0
118	CC(=O)Nc1cccc(NC(=O)C2CCCN2C(=O)Nc2cccc(C)c2)c1 (stereo unspecified)	0.3
119	COc1ccc(NC(=O)C2CCCN2S(=O)(=O)c2ccc3c(c2)CCC(=O)N3)c(OC)c1 (stereo unspecified)	3.4
120	O=C(Nc1ccccc1)N1CCn2c1nc1ccccc12	1.3
121	CCc1ccccc1NC(=O)c1ccoc1C	6.0
122	O=C(CCc1ccc(S(=O)(=O)N2CCCCC2)cc1)c1nnc(-c2ccccc2)o1	1.0
123	Cc1ccc(C)c(N2CCN(C(=O)CCS(=O)(=O)c3cccc4nonc34)CC2)c1	i
124	COc1ccc(C2C(C(=O)NCC3CCCO3)c3cc(OC)c(OC)cc3C(=O)N2C)cc1OC (stereo unspecified)	i
125	c1ccc(C2(CNc3ccccn3)CCCC2)cc1	0.2

The list continues.
No.	mol	H5N1 antiviral
126	CC1CCCC(C)N1CC(C)(C)NS(=O)(=O)c1ccc(Cl)cc1 (stereo unspecified)	0.2
127	CCC(=O)Nc1cccc(NC(=O)c2cccc([N+](=O)[O-])c2)c1	2.4
128	Cc1cc(C)c2c(N)c(S(=O)(=O)c3ccccc3)sc2n1	0.9
129	N=c1n(CCN2CCOCC2)c2ccccc2n1CC(=O)c1ccc(Cl)c(Cl)c1	i
130	Cc1csc2c(C#N)c(=O)c3c(n12)CCC3	i
131	COc1ccc(-c2nnc(SC(C)C(=O)Nc3ccc4c(c3)OCCO4)o2)cc1 (stereo unspecified)	i
132	O=S(=O)(NCc1csc(-c2cccnc2)n1)c1cccs1	2.6
133	Cc1sc2ncnc(N3CCCCC3C)c2c1C (stereo unspecified)	i
